Source: PubChem BioAssay
SARS PLP yeast: inhibitors of SARS-CoV papain-like protease in yeast; S. cerevisiae expressing SARS-CoV PLpro, growth rescue; control for the full effect not named in the record; Potency, µM (doses to about 32.9 µM), inactives show at the top dose activity, positive = growth rescue; 330,000 compounds, 0.19% hits; AID 485353; active means well fitted rising curve with a large enough effect; inconclusive means small, poorly fitted or top-dose-only effect; inactive means no such curve, though single readings can be large or run the other way; note: 0% is about no effect; nearly all actives have a fitted effect of over 55% in size; growth read by luminescence after 48 h
NS1 function inh: blocks influenza NS1 protein function | S. cerevisiae slowed by influenza A NS1, growth recovery by OD600 | Potency, µM (doses to about 46.1 µM), without a hit: at the top dose activity, positive = more growth | 270,000 compounds, 0.4% hits | AID 2326; active means well fitted rising curve with a large enough effect; inconclusive means small, poorly fitted or top-dose-only effect; inactive means no such curve, though single readings can be large or run the other way; note: nearly all actives have a fitted effect of over 50% in size
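Recovery from NS1-induced slow growth read by OD600 in budding yeast switched to galactose assay medium (pH 6.0, -URA) at 1:100 dilution. Compound 23 nl per well; the matching strain lacking NS1 serves as control.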
RE007 growth inh: less growth of the S. pombe RE007 Vpr strain | 360,000 compounds, 0.21% hits | S. pombe RE007 Vpr strain, BacTiter-Glo ATP luminescence, 24 h; control for the full effect not named in the record | Potency, µM (top dose mostly 92.2 µM), inactives show top-dose activity change, negative = less growth; active = well fitted falling curve with a large enough effect; inconclusive = small, poorly fitted or top-dose-only effect; inactive = no such curve, though single readings can be large or run the other way;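 note: % is set by controls: 0 for no effect and ±100 for the full control effect; nearly all actives have a fitted effect of over 50% in size; the assay follows cell death caused by Vpr and the record does not say whether a fall means rescue or toxicity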
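Fission yeast RE007 carrying one integrated HIV-1 vpr copy, seeded at OD 0.01 in PMG+AL medium with 23 nL pinned compound. Grown 24 h at 30 degrees; viability read by BacTiter-Glo luminescence after 5 min.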
Cruzain Triton: cruzain (T. cruzi) inhibition with detergent; Potency, µM, for inactives: max response, negative = inhibition, actives largely listed as inhibitors; 200,000 compounds, 0.43% hits; purified cruzain, Z-FR-AMC fluorescence, 0.01% Triton; P25779;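 note: plate controls were neutral wells for no effect and buffer without enzyme for full effect; nearly all actives have a fitted effect of over 40% in size; top concentration of the series not given in the record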
Target sequence (P25779 123-467 limits assumed): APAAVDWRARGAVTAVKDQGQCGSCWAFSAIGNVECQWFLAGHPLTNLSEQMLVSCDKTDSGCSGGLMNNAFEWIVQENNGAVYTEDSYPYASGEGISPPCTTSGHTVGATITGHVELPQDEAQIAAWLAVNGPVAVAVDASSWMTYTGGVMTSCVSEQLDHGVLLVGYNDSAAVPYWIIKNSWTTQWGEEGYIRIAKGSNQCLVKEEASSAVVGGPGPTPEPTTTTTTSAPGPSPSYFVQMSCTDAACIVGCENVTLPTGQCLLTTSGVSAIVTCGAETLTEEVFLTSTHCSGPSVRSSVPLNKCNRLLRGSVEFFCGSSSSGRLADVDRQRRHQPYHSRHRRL
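Steps: dispense cruzain (1.5 nM final) in acetate buffer pH 5.5 with DTT and 0.01% Triton X-100; pin-transfer compounds; incubate 15 min RT; add Z-FR-AMC (2 uM final); read fluorescence every 30 s, using the 60 s intensity change.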
MARV entry inh: inhibitors of Marburg virus binding or cell entry; Marburg virus pseudotyped entry inhibition, cell reporter; control for the full effect not named in the record; about a third of the inactives were read at about 46 µM; Potency, µM (doses to about 37.8 µM), without a hit: at the top dose activity change, negative = inhibition, actives largely listed as inhibitors; 300,000 compounds, 1.8% hits; AID 540276; active = well fitted inhibition curve with a large enough effect; inconclusive = small, poorly fitted or top-dose-only effect, or effect the other way; inactive = flat fitted curve, though single readings scatter; tested in HEK293 cells; about a fifth of its hits are not listed in these tables; note: % is set by controls: 0 for no effect and ±100 for the full control effect; luciferase read-out
StopGo reporter: lowers the luciferase signal of an FMDV 2A StopGo reporter. Potency, µM (highest dose often 57.9 µM), for inactives: top-dose signal change, negative = less light. 410,000 compounds, 1.2% hits. human cells with a luciferase reporter of 2A StopGo recoding; control for the full effect not named in the record. AID 1159524; active = well fitted falling curve with a large enough effect; inconclusive = small, poorly fitted or top-dose-only effect; inactive = no such curve, though single readings can be large or run the other way; tested in HEK293T cells; note: % is set by controls: 0 for no effect and ±100 for the full control effect; nearly all actives have a fitted effect of over 45% in size; luciferase light after 4 h
Cruzain inh noDet: inhibitors of Trypanosoma cruzi cruzain without detergent. 200,000 compounds, 2.3% hits. purified cruzain, Z-FR-AMC fluorescence, no detergent. AID 1476. Potency, µM, without a hit: max response, negative = inhibition, hits mostly inhibitors;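 note: plate controls were enzyme without inhibitor for no effect and buffer without enzyme for full effect; nearly all actives have a fitted effect of over 40% in size; top concentration of the series not given in the record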
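Purified cruzain at 1.5 nM, pre-incubated 15 min with compound at room temperature in 100 mM sodium acetate pH 5.5, 5 mM DTT, 0.00005% Triton X-100. Reaction started with 2 uM Z-FR-AMC; AMC fluorescence increase over 60 s gives rate.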
LASV entry inh: Lassa virus entry inhibition; Lassa virus pseudotype entry inhibition, cell reporter; control for the full effect not named in the record; Potency, µM (titrated, usually from 37.9 µM), without a hit: at the top dose activity change, negative = inhibition, usual class: inhibitors; 300,000 compounds, 1.2% hits; active means well fitted inhibition curve with a large enough effect; inconclusive means small, poorly fitted or top-dose-only effect, or effect the other way; inactive means flat fitted curve, though single readings scatter; tested in HEK293 cells; note: % is set by controls: 0 for no effect and ±100 for the full control effect; nearly all actives have a fitted effect of over 50% in size; luciferase read-out
Active calls of the source: *; u = inconclusive; x = not tested or not shown; & = joins results of further samples; [ ] = remark or other dose. Unless noted, calls come from the whole dose curve; as a rule, active = well fitted curve in the direction sought with a large enough effect; inconclusive = small, poorly fitted or top-dose-only effect, or another doubt; inactive = no such curve, though single readings can be large; an effect the other way counts as inactive or inconclusive. Potency is the fitted concentration of half-maximal effect.

SMILES | SARS PLP yeast | NS1 function inh | RE007 growth inh | Cruzain Triton | MARV entry inh | StopGo reporter | Cruzain inh noDet | LASV entry inh
CC(=O)Nc1sc2c(c1C(c1ccccc1)N1CCOCC1)CCCC2 (stereo not given) | -1% | 1% | 10% | -6.4% | 7% | u | u | 20%
CN1CC(=O)N(CC(=O)Nc2ccc3c(c2)CCC3)C1=O | -1% | x | 5% | x | 11%[46.1 µM] | 16% | x | 5%
O=C(O)CNS(=O)(=O)c1ccc2c(c1)C(=O)c1cc(S(=O)(=O)NCC(=O)O)ccc1-2 | 4% | 15% | 14% | x | x | -10% | x | x
COc1ccc(-c2coc3c(C)c4oc(=O)c(CCC(=O)O)c(C)c4cc23)cc1 | -4% | 8% | 8% | x | -22% | -27% | x | u
CCOC(=O)N1CCN(C(=S)NC(=O)c2ccnn2C)CC1 | 23% | 10% | -1% | -3.8% | 0% | -9% | -6% | u
COc1cccc(-c2cc(C(F)(F)F)nc(NCCc3ccc(OC)c(OC)c3)n2)c1 | x | x | x | -13% | u | -22% | u | -7%[46.1 µM]
CCCCCN(C(=O)CCCSc1nncs1)c1c(N)n(CCCC)c(=O)[nH]c1=O | -3% | 3% | 6% | x | 8% | -11% | x | 17%
COc1ccc(C(=O)/C=C/N(C)C)cc1 | -32% | -39% | u | -3.8% | u | 15% | -7% | -16%
O=C(CCSc1nnc(-c2ccncc2)o1)Nc1ccccc1 | 1% | -38% | 0% | 5.1% | -11% | -8% | -6% | 13%
Cc1ccc(NC(=O)O/N=C/c2ccc(N(C)C)cc2)cc1 | 1% | -9% | -15% | x | 12% | 44%[activator] | x | u
Cc1ccc(-c2onc(C)c2C)cc1S(=O)(=O)N1CC(C)Oc2ccccc21 (stereo not given) | 3% | 16% | 0% | x | x | u | x | x
COc1cc(C(c2sc3nc(C)nn3c2O)N2CCc3ccccc3C2)cc(OC)c1OC (stereo not given) | -4% | -15% | 8% | -6.9% | 9% | 7% | u | x
Oc1ccccc1Nc1nc2ccccc2n2nnnc12 | x | x | x | -3.6% | 12%[46.1 µM] | 27% | u | u
COc1ccc(-c2csc3ncnc(NCCCO)c23)cc1 | 19% | -10% | -8% | x | u | u | x | 8%[46.1 µM]
O=C(c1c(F)c(F)c(F)c(F)c1F)N(Cc1ccccc1)Cc1ccccc1 | -17% | 0% | -10% | -3.8% | u | u | 8% | 4%
CCOC(=O)C(NC(=O)CC)(Nc1ccc(C(O)(C(=O)OCC)C(F)(F)F)cc1C)C(F)(F)F (stereo not given) | -3% | -9% | 20% | -2.0% | 1% | 4% | u | -11%
COc1ccc(N(C)S(=O)(=O)c2ccc3c(c2)CCN3C(=O)CCC(=O)O)cc1 | x | x | x | 0.5% | 29%[46.1 µM] | -4% | -1% | 23%[46.1 µM]
Cc1ccc(S(=O)(=O)c2c(C)nn(C(C)(C)C)c2OC(=O)c2ccco2)cc1 | -13% | -94% | 26% | -0.7% | u | 13µM* | 12% | 11µM*
COC(=O)c1ccc(CSc2nc3c([nH]c4ccccc43)c(=O)n2-c2ccc(Cl)cc2)o1 | x | x | x | 3.4% | x | u | -3% | u
CC1(C)OC(c2ccccc2)=C/C(=C/C=Nc2ccccc2)O1 | 5% | -10% | 4% | -15% | -6% | -5% | -6% | -14%
O=C(C[N+]12CCN(CC1)CC2)NCCc1ccc(Cl)cc1Cl | 0% | x | -6% | x | 11%[46.1 µM] | -1% | x | 3%[46.1 µM]
CCOc1ccc(Br)cc1S(=O)(=O)N1CCC(C(N)=O)CC1 | -6% | 3% | -3% | x | -4% | 45%[activator] | x | 12%
COc1ccc(NC(=O)c2cc(S(=O)(=O)N3CCCC3)ccc2OC)cc1 | 5% | -1% | 7% | -0.9% | x | 6%&11% | -8% | 3%[46.1 µM]
CCOC(=O)c1cccc(-n2nnc3c(sc4nc(C)c(Br)c(C)c43)c2=O)c1 | x | x | x | 2.4% | 3%[46.1 µM] | -4% | 2% | -15%[46.1 µM]
CCCCCC(=O)Nc1cccc(C2=NOC3(C2)C[C@H](C(N)=O)N(C(=O)CC)C3)c1 (stereo not given in full) | 1% | 0% | 7% | x | x | 0% | x | x
Cc1ccc2nc(SCC(=O)N3CCOCC3)[nH]c2c1 | 10% | 6% | 9% | 1.9% | u | 4% | -9% | -2%
COCCCNC(=O)C(=O)NCC(c1ccc2c(c1)OCO2)N1CCOCC1 (stereo not given) | x | x | x | 0.6% | x | 0% | 8% | 9%[46.1 µM]
COc1cc2ccccc2cc1C(=O)N(CCN(C)C)c1nc2c(F)cc(F)cc2s1 | -8% | -15% | 5% | x | x | 12% | x | x
Cc1ccc(NCc2cccn2-c2nnc(N3CCCCCC3)s2)cc1 | x | x | x | -3.6% | x | -7% | -9% | 24%[46.1 µM]
COc1ccc(C(NC(=O)c2ccc(=O)[nH]c2)C(=O)Nc2ccc(C(C)C)cc2)cc1 (stereo not given) | -1% | x | 11% | x | u | -22% | x | u
CCC(C)(C)NC(=O)C(c1cccc(OC)c1OC)N(CCC(C)C)C(=O)CCC(=O)Nc1cc(C)on1 (stereo not given) | 1% | -3% | 2% | x | u | -25% | x | 5%
COc1ccc(C2C(C(C)=O)=C(C)Nc3ncnn32)cc1 (stereo not given) | -3% | -12% | 9% | x | x | -1% | x | x
O=C(NCO)c1cccnc1 | x | x | -5% | 5.2% | x | -18%&10% | -2% | x
CC(C)Cc1nnc(NC(=O)CCC(=O)N2CCN(Cc3ccccc3)CC2)s1 | 4% | -1% | 0% | x | x | u | x | x
C1CCN(CC2CCCCN2)CC1 (stereo not given) | x | x | -6% | x | 14% | -10% | x | -2%
Nc1nc(CN2CCN(C(c3ccccc3)c3ccccc3)CC2)nc(Nc2ccccc2)n1 | 2% | 10% | 0% | x | u | -20% | x | u
COC(=O)c1cc(NC(=O)CCc2c(C)nc3cc(-c4ccccc4)nn3c2C)cc(C(=O)OC)c1 | x | x | x | 3.0% | -12%[46.1 µM] | 13% | -4% | 8%[46.1 µM]
CN(CC(=O)NCc1ccncc1)S(=O)(=O)c1ccccc1 | 9% | 1% | -3% | 6.3% | -5% | x | -8% | 8%
Cc1cc(C)c(Cn2c3ccccc3c3cnn(CC(=O)NC4CCCCCC4)c(=O)c32)c(C)c1 | x | x | x | -2.2% | 2%[46.1 µM] | 14% | -6% | 3%[46.1 µM]
COCCNC(=O)c1cccc(Nc2nc(-c3ccccc3)c3cc(Cl)ccc3n2)c1 | -4% | 15% | 29% | -7.8% | 5% | u | u | -1%
CCN(CC)S(=O)(=O)c1ccc(N/N=C(\C)c2ccc3c(c2)OCO3)c([N+](=O)[O-])c1 | -12% | 6% | -2% | -3.0% | 33% | -24% | u | 2%
CCN(c1cccc(C)c1)S(=O)(=O)c1ccc(-c2coc(C)n2)cc1 | 0% | -9% | 6% | x | x | -25% | x | x
Fc1c(F)c(C(F)(F)F)c(F)c(F)c1N/N=C\c1cccs1 | -7% | -9% | -9% | -11% | 1% | x | -6% | -23%
COc1ccccc1N1CC(C(=O)Nc2nnc(SCc3ccccn3)s2)CC1=O (stereo not given) | -7% | 11% | -8% | -6.0% | u | 0% | 3% | 0%
CC(NC(=O)c1ccc(CS(C)(=O)=O)cc1)c1cccc2ccccc12 (stereo not given) | -1% | -1% | -9% | x | -24%[46.1 µM] | -5% | x | x

Entries of single compounds, quoted from the list. Screens in order: SARS PLP yeast	NS1 function inh	RE007 growth inh	Cruzain Triton	MARV entry inh	StopGo reporter	Cruzain inh noDet	LASV entry inh
`CN(CC(=O)NCc1ccncc1)S(=O)(=O)c1ccccc1` is entered as 9%	1%	-3%	6.3%	-5%	x	-8%	8%
`Cc1cc(C)c(Cn2c3ccccc3c3cnn(CC(=O)NC4CCCCCC4)c(=O)c32)c(C)c1` is entered as x	x	x	-2.2%	2%[46.1 µM]	14%	-6%	3%[46.1 µM]
`CC(C)Cc1nnc(NC(=O)CCC(=O)N2CCN(Cc3ccccc3)CC2)s1` is entered as 4%	-1%	0%	x	x	u	x	x
`COCCNC(=O)c1cccc(Nc2nc(-c3ccccc3)c3cc(Cl)ccc3n2)c1` is entered as -4%	15%	29%	-7.8%	5%	u	u	-1%

The results go on.
SMILES | SARS PLP yeast | NS1 function inh | RE007 growth inh | Cruzain Triton | MARV entry inh | StopGo reporter | Cruzain inh noDet | LASV entry inh
O=C(NNc1nc2ccccc2s1)Nc1ccc(F)cc1 | -1% | u | -13% | x | x | 43%[activator] | x | x
NC(=O)C1CCN(C2=C(Cl)C(=O)c3ccccc3C2=O)CC1 | -16% | 14% | -22% | -11% | u | 22µM* | 10% | u
COc1ccc(-c2cc(=O)oc3cc(OC(=O)C4CCCCC4)ccc23)cc1 | -9% | -3% | 16% | -6.2% | 5% | 1% | 1% | u
COc1ccc(-c2cn(CCc3c[nH]c4ccccc34)nn2)cc1 | 3% | 3% | 10% | x | x | 3% | x | x
Nc1c(C(=O)Nc2ccc3c(c2)OCCO3)nnn1Cc1ccccc1 | -3% | x | -11% | x | -20% | 48%[activator] | x | -27%
CCc1cc(/C(Cc2cscn2)=N\O)c(O)cc1O | 3% | -8% | 4% | -5.0% | 1% | -24% | -2% | -23%
COc1ccc(-c2nsc(SCC(=O)Nc3cc(C)on3)n2)cc1 | 1% | -5% | -14% | 0.1% | 5%[46.1 µM] | 4% | -10% | -6%
C[C@H](CO)NC(=O)[C@H](C)[C@@H]1C[C@@]1(C)[C@@H](NC(=O)OCc1ccccc1)c1ccccc1 | 5% | -8% | -2% | 2.4%&-1.0% | -2% | -1% | 16%&1% | -13%
COc1ccc2ccccc2c1CN1CCCC(CO)C1 (stereo not given) | 1% | -2%[9.22 µM] | -3% | -3.6% | -23% | -1% | -7% | 4%
COc1ccc(S(=O)(=O)N2CCN(C)CC2)c(C)c1 | 2% | 2% | -2% | x | x | -18% | x | x
CCOc1ccccc1-c1noc(CCC(=O)NC2CCCCC2)n1 | 1% | -5% | 4% | x | u | 10% | x | 3%[46.1 µM]
